Screening data: PubChem BioAssay, ICCB-Longwood Screening Facility, Harvard Medical School
LANA-nucl inh = LANA-nucleosome interaction inhibition. FITC-LANA1-23 / chicken nucleosome fluorescence polarization; active compounds read low. z-score (test concentration not listed). 51,000 tested, 0.3% active. AID 720717;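 active means both repeat wells score below -2 in polarization z-score versus plate sample wells, excluding overly bright wells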;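 further: 100 nL library stock added to about 30 µL; numbers are from one replicate; some results filed as inactive read as strong as hits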
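Assay system: purified chicken nucleosomes with FITC-labelled LANA N-terminal peptide (1-23) / Probe or stimulus: 50 nM FITC-LANA1-23 probe / Compound dosing: pin-transferred compound, 100 nL / Times: compound with peptide–nucleosome mix 10–45 min at room temperature / Technique: fluorescence polarization, 480 nm excitation, 535 nm parallel and perpendicular emission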
BasE inh = blocks the Acinetobacter baumannii siderophore enzyme BasE; 84,000 tested, 0.1% active; purified BasE, fluorescence polarization binding displacement; inhibition, % (no concentration beside the values);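 active means both replicates above 25% with normal brightness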;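 further: 0% = negative plate control signal and 100% = positive plate control signal; stock transfer was 100 nL into about 30 µL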
* marks the source's active call; other numbers are inactive results.

`CCc1ccc(Nc2nc3ccccc3nc2NS(=O)(=O)c2ccc(C)cc2)cc1` gave BasE inh 0.9.
Screening CC(C)CN(CC(C)C)S(=O)(=O)c1ccc(N)cc1 returned LANA-nucl inh 0.24 and BasE inh 2.5.
`NCCCc1ccc(Cl)cc1` gave LANA-nucl inh 1.9 and BasE inh -18.
`c1ccc(CNc2nc(-c3ccccc3)no2)cc1` gave LANA-nucl inh 0.6 and BasE inh 0.3.
Screening CCSc1cc(CC)c(C#N)c2nc3ccccc3n12 returned BasE inh -4.3.
For O=C(Nc1ccc2c(c1)OCO2)C1(c2ccc(Cl)cc2)CC1 the results were BasE inh 0.7.
For Cc1onc(-c2ccccc2)c1C(=O)Nc1ccccc1N1CCOCC1 the results were BasE inh 1.9.
`O=C(/C=C/c1ccccc1)Nc1ccccc1N1CCN(c2ccccc2)CC1` gave LANA-nucl inh -1.3 and BasE inh -1.4.
`Cc1cc(NC(=O)C2C3C(=O)N(CCC(C)C)C(C(=O)NC(C)(C)C)C34C=CC2(C)O4)no1` (configuration not stated) gave LANA-nucl inh -1.2 and BasE inh 0.6.
C/C=C/C(=O)Nc1cccc(C(F)(F)F)c1 was read as LANA-nucl inh -0.27 and BasE inh 1.1.
CCC(=O)N1CCc2cc(S(=O)(=O)NC(C(=O)Nc3ccc(OC)c(OC)c3)C(C)C)ccc21 (configuration not stated) was read as LANA-nucl inh -0.22 and BasE inh 1.8.
For COc1ccc(C(=O)/C=C/Nc2ccc(C(F)(F)F)cc2)cc1 the results were BasE inh -3.8.
For CCN1C(=O)c2ccccc2S(=O)c2ccc(C(=O)N3CCC(C)CC3)cc21 (configuration not stated) the results were LANA-nucl inh -0.59 and BasE inh 1.3.
Screening Cc1sc2nc(C)n(NC(N)=O)c(=O)c2c1C returned LANA-nucl inh 0.33 and BasE inh -1.8.
Screening CC1=NN(S(=O)(=O)c2ccccc2)C(O)(C(F)(F)F)C1 (configuration not stated) returned LANA-nucl inh -0.56 and BasE inh 2.0.
For O=C(COC(=O)C1COc2ccccc2O1)Nc1ccc(S(=O)(=O)N2CCCCC2)cc1 (configuration not stated) the results were BasE inh 2.8.
CCOc1ccccc1C(=O)NC1CCN(Cc2nnnn2C2CCCC2)CC1 was read as LANA-nucl inh -0.33 and BasE inh -1.6.
O=C(O)c1ccc(-c2cccc(Cl)c2)o1 was read as LANA-nucl inh 1.3 and BasE inh -0.8.
O=C(/C=C/c1ccco1)NC(=S)Nc1ccc2ccccc2c1 was read as LANA-nucl inh -0.27 and BasE inh 0.5.
`CC1(C)CC(NC(=O)CC(c2ccc(F)cc2)c2ccco2)CCO1` (configuration not stated) gave LANA-nucl inh 0.43 and BasE inh 0.8.
For CCCN(CCC)S(=O)(=O)c1ccc(C(=O)Oc2c(C)cccc2OC)cc1 the results were BasE inh -0.3.
`NC(=O)CSc1nc2ccccc2c(=O)n1Cc1ccco1` gave LANA-nucl inh 0.091 and BasE inh -0.4.
For CN1CCCN(C(=O)C23CC4CC(C)(CC(C)(C4)C2)C3)CC1 the results were LANA-nucl inh -1.3 and BasE inh 2.2.
Screening C[C@@H](C(=O)NCCc1ccc(Cl)cc1)N1C(=O)C2CC=CCC2C1=O (some centres not stated) returned BasE inh 1.3.
Screening C/C(=N\O)c1cc(Cl)sc1Cl returned LANA-nucl inh 0.58.
`CN(C)S(=O)(=O)c1cccc(CSc2nc3ccccc3o2)c1` gave BasE inh -0.1.
CC(C)(C)C(=O)CC#N was read as BasE inh -0.8.
`CCCCC1(C)OC(=O)C(=Cc2ccc(Br)o2)C(=O)O1` (configuration not stated) gave LANA-nucl inh -0.41 and BasE inh 2.2.
For CCc1c(C)c(C#N)c2nc3ccccc3n2c1N1CCN(Cc2cc(Cl)ccc2OC)CC1 the results were BasE inh 0.7.
Screening CCCCCC(=O)Nc1cc(-c2nc3cc(C)cc(C)c3o2)ccc1C returned LANA-nucl inh -0.12 and BasE inh 1.2.

Structures listed so far with a Cl atom, in the order listed:
`NCCCc1ccc(Cl)cc1` gave LANA-nucl inh 1.9 and BasE inh -18.
For O=C(Nc1ccc2c(c1)OCO2)C1(c2ccc(Cl)cc2)CC1 the results were BasE inh 0.7.
O=C(O)c1ccc(-c2cccc(Cl)c2)o1 was read as LANA-nucl inh 1.3 and BasE inh -0.8.
Screening C[C@@H](C(=O)NCCc1ccc(Cl)cc1)N1C(=O)C2CC=CCC2C1=O (some centres not stated) returned BasE inh 1.3.
Screening C/C(=N\O)c1cc(Cl)sc1Cl returned LANA-nucl inh 0.58.
For CCc1c(C)c(C#N)c2nc3ccccc3n2c1N1CCN(Cc2cc(Cl)ccc2OC)CC1 the results were BasE inh 0.7.

The list goes on.
`CC1=NN(c2ccccc2)C(=O)C1C` (configuration not stated) gave BasE inh -0.2.
`Fc1cccc(Nc2nnc(SCCN3CCCCC3)s2)c1` gave BasE inh -1.0.
`O=C(CCc1ccccc1)NC1CCCCC1` gave LANA-nucl inh -0.23 and BasE inh -1.4.
Screening O=c1cc(O)c2cccc3c4ccccc4n1c23 returned LANA-nucl inh -0.034 and BasE inh -2.0.
Nc1nc(NCc2cccc(Br)c2)nn1-c1ccccc1 was read as LANA-nucl inh 0.52 and BasE inh -1.3.
`Cn1c(SCC(=O)c2ccc(CNC(=O)C(C)(C)C)s2)nnc1C1CC1` gave BasE inh 2.2.
For Cc1c[n+](CC(=O)c2ccccc2)c(C)cn1 the results were LANA-nucl inh 0.4 and BasE inh 2.5.
Cc1ccc2onc(CC(=O)NCCC3=CCCCC3)c2c1 was read as LANA-nucl inh 0.14 and BasE inh -0.8.
`CCOC(=O)N1CCC(NC(=O)c2ccc3c(c2)N(CC)CCS3)CC1` gave LANA-nucl inh -0.25 and BasE inh 1.0.
CC(NS(=O)(=O)c1cccc(Cl)c1)C(=O)N(C)C1CCN(C)CC1 (configuration not stated) was read as BasE inh 2.4.
Screening Cc1cc(C)c(C#N)c(SCC(O)CSc2ccc(Cl)cc2)n1 (configuration not stated) returned LANA-nucl inh -0.27 and BasE inh 0.6.
For CCN(c1ccccc1)c1nc2ccc(Cl)cc2n2cnnc12 the results were LANA-nucl inh 0.81 and BasE inh 1.6.
`CCOC(=O)c1c(N)sc2c1CCN(Cc1ccccc1)C2` gave LANA-nucl inh 1.8.
For Cc1onc(-c2ccccc2)c1C(=O)OCC(=O)N1CCCC1 the results were BasE inh 0.0.
`CCCc1c(C)nc2ccccc2c1SCC(=O)O` gave LANA-nucl inh 0.48 and BasE inh -1.5.

Entries above that contain a COOH group:
O=C(O)c1ccc(-c2cccc(Cl)c2)o1 was read as LANA-nucl inh 1.3 and BasE inh -0.8.
`CCCc1c(C)nc2ccccc2c1SCC(=O)O` gave LANA-nucl inh 0.48 and BasE inh -1.5.

More structures:
For CC(C)N(C(=O)COn1nnc2ccc(S(=O)(=O)N(C)C)cc21)C(C)C the results were BasE inh 0.1.
`Cc1nn(-c2ccccc2)c2c1C(c1cccs1)N(C1CC1)C(c1ccccc1)=N2` (configuration not stated) gave BasE inh 2.6.
For CCN(c1ccccc1)S(=O)(=O)c1cc(OC)ccc1OC the results were LANA-nucl inh -0.046 and BasE inh -2.2.
Screening CCCCC/C=C\C\C=C/C=C/C=C/[C@@H](SCC(NC(C)=O)C(=O)O)[C@@H](O)CCCC(=O)O (some centres not stated) returned LANA-nucl inh -0.38 and BasE inh 0.8.
CCOC(=O)c1sc2sc(C(=O)OCC)c(-c3ccc(Cl)cc3)c2c1N was read as BasE inh -2.8.
`C=CCn1c(-c2ccccc2)c[nH]c1=S` gave LANA-nucl inh -0.71 and BasE inh 0.7.
CCN1CCN(C(=O)c2cccc(S(=O)(=O)N(C)c3ccccc3)c2)CC1 was read as BasE inh -0.3.
`CC(C)(CO)NC(=O)C(Cc1ccccc1)N1C(=O)c2ccccc2C1=O` (configuration not stated) gave LANA-nucl inh -0.31 and BasE inh 1.5.
Screening CCN(CC)S(=O)(=O)c1ccc(N(C)CCc2ccc(OC)c(OC)c2)nc1 returned BasE inh -1.6.
COC(CNc1ncnc2sc(-c3ccccc3)cc12)OC was read as BasE inh 0.1.
`O=c1c2cc(Cl)ccc2ncn1Cc1cc(=O)n2ccsc2n1` gave BasE inh 2.1.
Cc1cc2c(c(Sc3ccc(Cl)cc3)n1)C(=O)NC2=O was read as BasE inh -0.4.
CC1CCC(N2CCN(c3ncccn3)CC2)C1 (configuration not stated) was read as LANA-nucl inh 0.56 and BasE inh -0.1.
Screening O=C(Cn1c(=O)c2cccn2c2cccnc21)NCCN1CCCCCC1 returned LANA-nucl inh 0.46 and BasE inh -2.0.
CNc1nc(-c2cn(CCC#N)c3ccccc23)cs1 was read as BasE inh 3.7.

Six entries from above, ordered by formula weight, smallest number first.
`C=CCn1c(-c2ccccc2)c[nH]c1=S` gave LANA-nucl inh -0.71 and BasE inh 0.7.
`CC(C)(CO)NC(=O)C(Cc1ccccc1)N1C(=O)c2ccccc2C1=O` (configuration not stated) gave LANA-nucl inh -0.31 and BasE inh 1.5.
For CC(C)N(C(=O)COn1nnc2ccc(S(=O)(=O)N(C)C)cc21)C(C)C the results were BasE inh 0.1.
CCN1CCN(C(=O)c2cccc(S(=O)(=O)N(C)c3ccccc3)c2)CC1 was read as BasE inh -0.3.
CCOC(=O)c1sc2sc(C(=O)OCC)c(-c3ccc(Cl)cc3)c2c1N was read as BasE inh -2.8.
`Cc1nn(-c2ccccc2)c2c1C(c1cccs1)N(C1CC1)C(c1ccccc1)=N2` (configuration not stated) gave BasE inh 2.6.

(listing goes on)
For COc1cccc(C(=O)N2CCN(c3ccccc3)CC2)c1 the results were BasE inh 3.0.
Screening COC(=O)c1ccccc1NC(=S)NC(C)=O returned LANA-nucl inh 0.15 and BasE inh -1.2.
Screening CN1CCSc2ccc(C(=O)Nc3cccc(F)c3)cc21 returned LANA-nucl inh 0.55 and BasE inh 0.3.
Screening O=C(c1csc(-c2cccs2)n1)N1CCCN(S(=O)(=O)c2ccc(F)cc2)CC1 returned BasE inh -1.2.
Screening O=C(Sc1ncccn1)c1ccc(F)cc1 returned BasE inh -1.9.
`CCCCc1ccc(NC(=S)NCCCN2CCOCC2)cc1` gave BasE inh 1.6.
Screening O=C(NCc1ccc(F)cc1)N1CCSc2ncccc21 returned BasE inh 1.4.
CCCNC(=O)CSc1nnc(-c2ccccc2)n1CC was read as BasE inh 0.3.
`CCOC(=O)C1=C(C)N(C)C(=O)NC1c1ccccc1OC` (configuration not stated) gave BasE inh 1.3.
Screening CNC(=O)c1ccc(OCC(C)C)cc1 returned LANA-nucl inh 1 and BasE inh 1.0.
`COC(=O)c1sc2nc(C)[nH]c(=S)c2c1C` gave BasE inh 0.0.
Screening Cc1cc(C(=O)COC(=O)C2CC2)c(C)n1CC(F)(F)F returned BasE inh -5.7.
Screening Cc1cc(SCC(=O)NCc2ccco2)nc2ccccc12 returned LANA-nucl inh 0.26 and BasE inh -2.0.
For NC1=C(C(=O)NCc2ccco2)C(=Nc2ccccc2)SC1C(=O)Nc1ccc(Oc2ccccc2)cc1 (configuration not stated) the results were BasE inh -0.8.
`CN1C(=O)Cc2cc(S(N)(=O)=O)ccc21` gave LANA-nucl inh -0.19 and BasE inh 0.7.

2 compounds picked at random from the list so far, as already listed:
CCCNC(=O)CSc1nnc(-c2ccccc2)n1CC was read as BasE inh 0.3.
Screening Cc1cc(C(=O)COC(=O)C2CC2)c(C)n1CC(F)(F)F returned BasE inh -5.7.

Further compounds:
Cc1cc(C)c2c(N)c(C(=O)c3cccs3)sc2n1 was read as BasE inh 1.1.
CC1(C)CC(=O)C=C(N2CCN(S(=O)(=O)/C=C/c3ccccc3)CC2)C1 was read as BasE inh -0.4.
For CC1Cn2cc(C(=O)N3CCN(c4ccccc4)CC3)c(=O)c3c(Cl)ccc(c32)O1 (configuration not stated) the results were LANA-nucl inh 1.3 and BasE inh -4.6.
`Cc1ccc(/C=C/C(=O)N2CCN(S(=O)(=O)/C=C/c3ccccc3)CC2)o1` gave BasE inh 0.7.
`CCN(CC(=O)Nc1ccccc1OC)C(=O)c1cccc(CS(C)(=O)=O)c1` gave BasE inh -0.1.
`CSc1nc2c3ccccc3n(C(C)=O)c2n1Cc1ccccc1` gave BasE inh 4.6.
Screening NCCNC(=O)c1c(O)c2cccc3c2n(c1=O)CCC3 returned LANA-nucl inh -0.3 and BasE inh -2.8.
CCOC(=O)c1c(Cc2ccccc2Cl)cn(C)c1C was read as BasE inh 1.5.
For Cc1cnc(NC(=O)CSc2nc3sc4c(c3c(=O)n2C)CCCC4)s1 the results were LANA-nucl inh -0.21 and BasE inh -1.2.
For COc1cc(N=C(C)c2c(C)[nH]n(-c3nc4ccccc4s3)c2=O)cc(OC)c1 the results were BasE inh 0.0.
`Cc1[nH]n(C(N)=S)c(=O)c1N=Nc1ccc(Br)cc1` gave LANA-nucl inh 0.011 and BasE inh -0.7.
`Nc1nc(COC(=O)C2COc3ccccc3O2)nc(Nc2ccccc2)n1` (configuration not stated) gave BasE inh -1.0.
For Cc1ccc(N2CS(=O)/C(=C/Nc3ccc(Cl)cc3)C2=O)cc1 (configuration not stated) the results were LANA-nucl inh 0.3.
C=C[n+]1ccn(-c2nc3ccccc3nc2[N-]S(=O)(=O)c2ccccc2)c1 was read as BasE inh 1.2.
For CCC(CO)NCc1ccc(-c2ccc(F)c(Cl)c2)o1 (configuration not stated) the results were LANA-nucl inh -0.63 and BasE inh -3.6.
`c1cncc(CSc2ccc(-c3cccs3)nn2)c1` gave LANA-nucl inh 0.42 and BasE inh -6.9.
Cc1cc(C)c2nc(NCCN3CCCC3)cc(C)c2c1 was read as BasE inh -4.1.

These rows are one share of the data (hit frequency here may not be typical).
